TAR Tat displ: HIV-1 TAR-Tat binding disruption; HIV-1 TAR RNA, Tat peptide displacement FRET; stronger effect = higher value; z-score (test concentration not listed); 0.6% of 100,000 active; AID 1259389;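 further: score is relative to mean and SD of negative controls; some compounds called inactive have numbers as strong as hits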
CDC25B-CDK2 inh: human CDC25B-CDK2/CyclinA binding inhibition | AID 1259370 | 0.72% of 94,000 active | HTRF CDC25B-CDK2/CyclinA binding, anti-His/anti-Flag; stronger effect = higher value | P30305+P24941 | z-score (test concentration not listed);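 further: score is relative to mean and SD of negative controls; strong numbers were not always called active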
An asterisk follows results filed as active; nt = no result given.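 How the source made its calls: active means z-score from 3 up in half or more of its runs; inactive means the rest.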

SMILES	TAR Tat displ	CDC25B-CDK2 inh
Cc1ccc(Nc2nc(N3CC(C)OC(C)C3)nc(N)c2[N+](=O)[O-])cc1C (stereo not drawn)	-0.48	nt
Cc1cc(=O)[nH]c(N2CCN(C(c3ccccc3)c3ccccc3)CC2)n1	0.12	nt
CCOc1ccccc1NC(=O)C(CC)Sc1nnc(C)n2c1cc1occc12 (stereo not drawn)	3.08	nt
COc1cccc(C2C(C(=O)OCc3ccccc3)=C(C)Nc3nnnn32)c1OC (stereo not drawn)	nt	-0.07
Cc1nn(-c2nc3ccccc3s2)c2c1C(c1cccc(Br)c1)CC(=O)N2 (stereo not drawn)	1.77	-1.23
O=C(Nc1ccc(-c2ccc(Cl)cc2)cc1)C1CC1	nt	-0.32
O=C(Nc1ccc2c(c1)OCCO2)Nc1nc2c(s1)CCCC2	-0.24	nt
CSc1ccc(CCNC(=O)NCc2noc3ccc(C)cc23)cc1	-0.12	nt
CCOC(=O)c1cnn(C)c1-n1cccc1	nt	-0.16
CSCCC(NS(=O)(=O)c1ccc2c3c(cccc13)C(=O)N2)C(=O)O (stereo not drawn)	2.53	-0.02
c1ccc(-c2noc(Nc3ccc4c(c3)OCCO4)n2)cc1	2.18	nt
COc1ccc(CNc2nc3ccccc3c3nc(CCn4c(C)nc5ccccc54)nn23)cc1	0.71	0.01
Oc1ccccc1C=NCc1csc2ccccc12	nt	-2.75
O=C(Nc1ccc2nc(CN3CCOCC3)[nH]c2c1)c1ccco1	-0.28	-1.39
O=C(c1cc2ccc3cccnc3c2[nH]1)N1CCc2ccccc21	0.55	nt
N#Cc1nc(COc2ccc(F)cc2)oc1NCc1cccnc1	1.74	-1.61
CC1CCN(CC(C)OC(=O)c2cccs2)CC1 (stereo not drawn)	1.83	-0.5
O=C(NCCCN1CCCC1=O)c1noc2c1CCc1sccc1-2	0.42	nt
COC(=O)CCSc1c(S(=O)(=O)c2ccc(Cl)cc2)cnc2ccc(OC)cc12	-0.31	-0.91
COc1ccccc1NC1=NC2(CCCC2)N=C(N)N1	nt	-0.44
C/C(=N/O)c1ccc(OCCO)cc1	nt	-1.09
O=C(C1CC1)N1CCCc2cc(NS(=O)(=O)c3cccs3)ccc21	0.69	nt
COc1ccc(Br)c(C(=O)ONC(=O)c2ccc(Cl)c(Cl)c2)c1	nt	-0.25
Cc1ccc(S(=O)(=O)Oc2cc(C)nc(-c3cccc(C)c3)n2)cc1	nt	-0.9
CCN(CC)c1ccc(/C=C2/C(=O)N(c3nc(-c4ccc5ccccc5c4)cs3)N=C2C)cc1	nt	-3.38
Next part.
SMILES	TAR Tat displ	CDC25B-CDK2 inh
COCCCN=C1NC(=O)C(CC(=O)Nc2cc(Cl)ccc2Cl)S1 (stereo not drawn)	nt	-0.94
COc1ccc(-c2nn3c(Cc4ccc(Cl)cc4)nnc3s2)cc1	1.09	0.28
O=[N+]([O-])c1ccc(Oc2ccc(C3SCCS3)cc2)nc1	nt	-1.93
O=C(NNC(=S)Nc1ccccc1)c1ccco1	nt	-1.99
COC(=O)C1=C(C)Nc2nc(SCC(C)C)[nH]c(=O)c2C1c1ccccc1 (stereo not drawn)	0.31	-1.72
CCC(=O)N(c1ccc(C(C)C)cc1)C1C=CS(=O)(=O)C1 (stereo not drawn)	-0.33	-1.87
Cc1nc(CC(=O)Nc2nc(-c3ccc(Br)cc3)cs2)cs1	0.14	-1.75
CC(C)COC(=O)OCN1C(=O)CN(CCN2CC(=O)N(COC(=O)OCC(C)C)C(=O)C2)CC1=O	nt	-1.99
COc1ccc(N2C(=O)c3c(c4ccccc4n3C)C2c2ccc(OC)c(OC)c2)cc1 (stereo not drawn)	nt	-1.33
Cc1cc2c(Oc3ccc4cnccc4c3)ncnc2s1	-1.43	nt
Cc1cc(NC(=O)Cn2nc(C(=O)N3CCc4ccccc43)ccc2=O)no1	0.54	nt
Cc1c(Br)c(C(F)(F)F)nn1CC(=O)N1CCc2ccccc2C1	3.31	0.05
CCOC(=O)CSc1nnc(-c2c[nH]c3ccccc23)n1-c1cc(OC)ccc1OC	nt	-3.12
CCCOc1ccc(C2C(C#N)=C(N)OC3=C2C(=O)CCC3)cc1 (stereo not drawn)	nt	-1.34
COc1ccccc1C(=O)CC1(O)C(=O)N(Cc2ccccc2)c2ccc(Br)cc21 (stereo not drawn)	-0.35	0.9
CS(=O)(=O)Nc1ccc(C2=NN(C(=O)CCC(=O)O)C(c3cccc(F)c3)C2)cc1 (stereo not drawn)	nt	-2.25
c1ccc(-c2cn3c(n2)COc2ccccc2-3)cc1	-0.93	-0.99
Cc1[nH]nc(-n2cnnc2)c1NS(=O)(=O)c1cccc(Cl)c1	0.62	0.66
Cn1nc(C(=O)N2CCC(c3ccccc3)C2)c2c1-c1ccccc1S(=O)(=O)C2 (stereo not drawn)	3.5	-0.51
CCOC(=O)CSc1nc2c(sc(=S)n2Cc2ccco2)c(=O)n1-c1ccc(F)cc1	-0.63	nt
O=C1CCC([N+](=O)[O-])C(c2cc3c(cc2Cl)OCO3)N1 (stereo not drawn)	nt	-0.35
CCOC(=O)c1[nH]c(C)c(C(=O)NCCN2CCCC2)c1C	nt	-0.94
COc1ccc2ccccc2c1-c1csc(N)n1	0.98	-0.63
COc1ccc(-c2nc3c4cnn(-c5ccc(OC)cc5)c4ncn3n2)cc1	1.12	-0.39
CCCc1cc(=O)[nH]c(SCc2ccc(C(=O)Oc3ccc(F)cc3F)cc2)n1	nt	-1.46

Molecules above containing a nitro group on carbon (3):
SMILES	TAR Tat displ	CDC25B-CDK2 inh
Cc1ccc(Nc2nc(N3CC(C)OC(C)C3)nc(N)c2[N+](=O)[O-])cc1C (stereo not drawn)	-0.48	nt
O=[N+]([O-])c1ccc(Oc2ccc(C3SCCS3)cc2)nc1	nt	-1.93
O=C1CCC([N+](=O)[O-])C(c2cc3c(cc2Cl)OCO3)N1 (stereo not drawn)	nt	-0.35

(more compounds)
SMILES	TAR Tat displ	CDC25B-CDK2 inh
COc1ccc(OC)c(-n2c(=O)c3ccccc3c3ccccc3c2=O)c1	nt	-0.9
OC(CNCc1cc(Cl)cc(Cl)c1)COc1ccc(Cl)c(Cl)c1 (stereo not drawn)	nt	-1.8
COc1ccc(CNc2nc3ccccc3n2C)cc1OC	1.61	-1.21
CCOC(=O)N1CCC(Nc2c(NCCCOC)c(=O)c2=O)CC1	-1.16	0.1
Cc1[nH]c2ccc(-c3nnc(SC(C)C(=O)Nc4ccc5c(c4)OCCO5)o3)cc2c1C (stereo not drawn)	-2.13	0.43
O=C(NCc1ccc(F)cc1)c1cnn2c(C(F)(F)F)cc(-c3cccs3)nc12	-5.92	nt
CSc1sc(C(=O)Nc2cccc(C(F)(F)F)c2)cc1S(=O)(=O)C(C)C	nt	-1.74
Cc1ccc(-n2c(-c3ccco3)nc3c(cnn3-c3ccc(C)c(C)c3)c2=O)cc1	0.71	nt
Cc1cc(C)nc(N2N=C(C(C)C)CC2=O)n1	-6.83	-2.51
CCCCCCn1c(CN2CCN(CC)CC2)nc2c1c(=O)n(C)c(=O)n2C	0.45	-1.31
CCOc1ccc(OCC)c(NS(=O)(=O)c2cc(Br)cc3c2N(C(C)=O)C(C)C3)c1 (stereo not drawn)	-2.32	-2.12
CN(C)CCn1c2c(c(SCC(=O)Nc3ccccc3)nc1=O)CCC2	1.48	nt
CN(C(=O)C1=CC(c2ccc(F)cc2)=NS(=O)(=O)N1C)C1CCCCC1	1.85	3.41
CCCN1CCN(c2ncc3c(n2)CCN(CCC)C3)CC1	0.59	nt
CC(=O)NC12CC3(C)CC(C)(CC(C)(C3)C1)C2	nt	-0.14
Cc1ccn2c(=O)c(C(=O)NCCCN3CCOCC3)c(O)nc2c1	-0.6	-2.79
Cc1ccc(-c2cc(C)nc3nc(N)nn23)cc1	0.83	-1.13
CN(Cc1ccco1)C(=O)C1CCCN(S(=O)(=O)c2ccc3c(c2)oc(=O)n3C)C1 (stereo not drawn)	2.34	-0.2
O=C(O)c1ccc2c(c1)C(=O)N(c1ccc(C(=O)O)c(Cl)c1)C2=O	nt	0.13
Cn1c(=O)n(CC(=O)N2CCCC2)c(=O)c2cc(S(=O)(=O)NCc3ccccn3)ccc21	0.96	nt
COCCN1C(=O)C(=O)/C(=C(/O)c2ccccc2)C1c1ccc(O)c(OC)c1 (stereo not drawn)	0.92	-1
CN1C(C(=O)NCc2ccccc2)=CC(c2ccc3c(c2)OCO3)=NS1(=O)=O	3.21*	0.11
COc1ccc(-c2nc3c(c(SCC(N)=O)n2)Cc2cc(Br)ccc2O3)cc1	0.65	-0.42
O=C(Nc1ccc(Cl)cc1)N1CCN2CCCCC2C1 (stereo not drawn)	1.87	nt
CCCN(CCC)CCCNS(=O)(=O)c1ccc2c(c1)oc(=O)n2C	nt	-1.68
The results go on:
SMILES	TAR Tat displ	CDC25B-CDK2 inh
O=S(=O)(NCc1cccnc1)c1cccs1	nt	1.77
O=C(CSCc1ccc(Cl)cc1)Nc1ccc(F)cc1	nt	-1.13
Cc1ccc([N+](=O)[O-])cc1/C=N/NC(=O)CSCC(=O)Nc1ccccc1	nt	-1.57
CC(SC1=Nc2ccccc2C2=NC(c3ccccc3)C(=O)N12)C(=O)Nc1ccc2c(c1)OCCO2 (stereo not drawn)	0.3	nt
Cc1cccc2nc(-c3ccno3)oc(=O)c12	nt	-0.53
COc1ccc(C2NC(=O)NC(O)(C(F)(F)F)C2C(=O)c2cccs2)cc1OC (stereo not drawn)	nt	-0.83
CN(CC(=O)Nc1ccc(Cl)cc1)S(=O)(=O)c1ccc2c(c1)CCC(=O)N2	nt	-0.66
CCOC(=O)c1[nH]n(-c2ccc(Cl)cc2)c(=O)c1C	0.68	-1.01
NC(=O)c1ccc(-c2ccc(Cl)cc2)s1	nt	-0.29
O=S(=O)(Cc1ccccc1)N1CCN(c2ccc(F)cc2)CC1	1.22	-1.7
COCCCN1C(=O)C(=O)/C(=C(/O)c2ccccc2)C1c1ccc(O)c(OC)c1 (stereo not drawn)	-0.82	-1.57
Cc1ccc(C)c(S(=O)(=O)c2nnn3c2nc(N)c2sccc23)c1	-0.66	nt
Cc1cccc(N2CCN(Cc3nnc(-c4ccc5c(c4)OCO5)o3)CC2)c1C	0.57	-0.42
Cc1cn2c(=O)cc(COc3cccc(C)c3C)nc2s1	0.94	-1.96
Cc1ccc(S(=O)(=O)NC(C)(C)CSc2ncn[nH]2)cc1	1.53	nt
COc1ccc(-c2cc(-c3ccccc3)c(C#N)c(S(C)=O)n2)cc1 (stereo not drawn)	nt	-1
CC(C)NC(=O)c1cnn2c1NC(c1ccc(Br)cc1)CC2C(F)(F)F (stereo not drawn)	0.72	-0.72
O=C(Cn1ncc2ccccc21)N1CCc2ccccc2C1	0.93	-1.73
C=CCn1c(-c2nonc2NC(=O)c2ccccc2Cl)nc2ccccc21	0.04	-1.45
O=C(COCc1cc(-c2ccc3c(c2)OCO3)on1)NCc1ccc2c(c1)OCO2	1.17	nt
Cc1cn2c(nc1=O)OC1[C@@H](O)[C@@H](CO)O[C@H]12 (stereo partly drawn)	0.64	-0.53
Cc1cc(/C=N/NS(=O)(=O)c2ccc(F)c(Cl)c2)no1	nt	-1.1
CCOC(=O)C1CCCN(C(=O)Cn2cnc3c2c(=O)n(C)c(=O)n3C)C1 (stereo not drawn)	2.46	-3.72
CC(C)CCNC(=O)C1(C)Cn2nc(C(=O)NCc3cccs3)cc2C(=O)N1C (stereo not drawn)	0.21	nt
CC(=O)N1c2ccc(S(=O)(=O)N3CCCCC3)cc2CC1C(=O)N1CCc2ccccc2C1 (stereo not drawn)	1.05	nt

Filtered by structure: the entries above containing a thiophene ring, fused or not (twelve)
SMILES	TAR Tat displ	CDC25B-CDK2 inh
Oc1ccccc1C=NCc1csc2ccccc12	nt	-2.75
CC1CCN(CC(C)OC(=O)c2cccs2)CC1 (stereo not drawn)	1.83	-0.5
O=C(NCCCN1CCCC1=O)c1noc2c1CCc1sccc1-2	0.42	nt
O=C(C1CC1)N1CCCc2cc(NS(=O)(=O)c3cccs3)ccc21	0.69	nt
Cc1cc2c(Oc3ccc4cnccc4c3)ncnc2s1	-1.43	nt
O=C(NCc1ccc(F)cc1)c1cnn2c(C(F)(F)F)cc(-c3cccs3)nc12	-5.92	nt
CSc1sc(C(=O)Nc2cccc(C(F)(F)F)c2)cc1S(=O)(=O)C(C)C	nt	-1.74
O=S(=O)(NCc1cccnc1)c1cccs1	nt	1.77
COc1ccc(C2NC(=O)NC(O)(C(F)(F)F)C2C(=O)c2cccs2)cc1OC (stereo not drawn)	nt	-0.83
NC(=O)c1ccc(-c2ccc(Cl)cc2)s1	nt	-0.29
Cc1ccc(C)c(S(=O)(=O)c2nnn3c2nc(N)c2sccc23)c1	-0.66	nt
CC(C)CCNC(=O)C1(C)Cn2nc(C(=O)NCc3cccs3)cc2C(=O)N1C (stereo not drawn)	0.21	nt

Screening data deposited in PubChem BioAssay by Center for Chemical Genomics, University of Michigan.
